# Compound activity deposited in PubChem BioAssay by Broad Institute.
# Tg IFNy HTS: T. gondii growth inhibition with IFN-gamma, primary screen, cell-based | actives 3.8% (n = 69,000) | activity change, negative = inhibition, %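 (about 20 µM by stock and volumes)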 | AID 1259416, 2018 | Toxoplasma gondii growth in IFN-gamma-treated host cells; active compounds read low; reference of the scale not given here;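 active means below -70%; inconclusive means fit judged invalid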;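 further: host cells are HeLa cells infected with Toxoplasma gondii; parasite growth read as luciferase light; one replicate is shown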
# Starred values were filed as active, the others as inactive; i = inactive; ? = inconclusive; & = joins results of further samples. Only part of the results is shown; count on the stated rates, not on these rows.
# The opening 4 records as a preview:
SMILES,Tg IFNy HTS
Cc1ccccc1C(CNC(=O)c1cn2cccnc2n1)N(C)C (stereo unspecified),3
CC(C)N1CCOCC2(CCCN(C(=O)c3ccc(-n4cccc4)cc3)C2)C1 (stereo unspecified),2
Cc1noc(C)c1S(=O)(=O)Nc1ccc2c(c1)CC(=O)N([C@H](C)CO)C[C@H](C)[C@H](CN(C)Cc1ccc(Oc3ccccc3)cc1)O2,-51
COc1ccc2c3c(n(C)c2c1)[C@H](CO)N(C(=O)CC1CC1)CC31CN(Cc2ccncc2)C1,-32

# All compounds of this part, previewed entries included:
SMILES,Tg IFNy HTS
Cc1ccccc1C(CNC(=O)c1cn2cccnc2n1)N(C)C (stereo unspecified),3
CC(C)N1CCOCC2(CCCN(C(=O)c3ccc(-n4cccc4)cc3)C2)C1 (stereo unspecified),2
Cc1noc(C)c1S(=O)(=O)Nc1ccc2c(c1)CC(=O)N([C@H](C)CO)C[C@H](C)[C@H](CN(C)Cc1ccc(Oc3ccccc3)cc1)O2,-51
COc1ccc2c3c(n(C)c2c1)[C@H](CO)N(C(=O)CC1CC1)CC31CN(Cc2ccncc2)C1,-32
c1ccc2[nH]c(-c3nc4ccccc4[nH]3)nc2c1,109
COc1ccc(-c2nc3c(s2)CN(S(=O)(=O)c2ccc(OC)cc2)CC3)cc1,-4
CCn1cc(S(=O)(=O)N[C@@H]2CC[C@@H](N)C2)cn1,2
Cc1ccc(CN2CCC3(CC2)CC(OCc2ccncc2)CO3)cc1 (stereo unspecified),-5
Cc1ccc(N2C(=O)C(c3ccccc3)C(N3CCOCC3)C2=O)cc1 (stereo unspecified),-57
Cc1cccc(-c2nc(CCNC(=O)c3c(F)cccc3F)cs2)c1,i
CCCc1nc(NCc2cc(-c3ccccc3)n[nH]2)c2cnn(C)c2n1,-83*
COc1cc(OC)cc(C(=O)NCCc2csc(-c3ccc(C(F)(F)F)cc3)n2)c1,i
C/C=C/c1ccc([C@H]2[C@@H](CO)N(C(=O)c3ccccn3)C23CN(CCC(F)(F)F)C3)cc1,22
CN(C)CC(=O)N1[C@@H]2c3ccc(C4=CCCCC4)c(=O)n3C[C@@H]2[C@@H](CO)[C@@H]1C(=O)Nc1nccs1,3
CCCCN1CCN(C(=O)CCNC(=O)c2ccc(F)cc2)CC1=O,-5
COc1cccc(-c2nc3cnccn3c2NCCC(=O)NC2CCN(C)CC2)c1,-18
COc1ccc(CNC(=O)Cn2c(=O)cc(C(=O)N3CCc4ccccc4C3)c3ccccc32)cc1,-15
O=C(CCCC(=O)N1CCCC2(CCNCC2)CC1)c1ccccc1,2
CN(Cc1ccccc1)C1CCN(C(=O)c2cccs2)C(C(=O)O)C1 (stereo unspecified),5
COc1ccc(CCNc2nc(SCc3cc(=O)n4cc(Cl)ccc4n3)nc3ccccc23)cc1OC,17
O=C(O)C1CCCCC1C(=O)NCCc1csc(-c2ccccc2)n1 (stereo unspecified),147
Cc1ccc(S(=O)(=O)N(C)C)cc1NC(=O)Nc1ccccc1,-2
COc1ccccc1-c1noc(-c2c(O)c3cccc(Cl)c3[nH]c2=O)n1,-28
c1ccc(-c2nc(SCc3nnnn3-c3ccccc3)c3ccccc3n2)cc1,-11
CN1C(=O)c2cc(NC(=O)c3cccc(Cl)c3)ccc2OC[C@H]2O[C@H](CC(=O)NC3CCCCC3)CC[C@@H]21,-38
CCOc1ccccc1N(CC(=O)Nc1ccccc1C(=O)N1CCCC1)S(C)(=O)=O,-30
O=C(O)[C@H]1CN(C/C=C/P(=O)(O)O)CCN1,1
Cc1[nH]c2c(c1C(=O)NCc1cccnc1N1CCN(C)CC1)C(=O)CCC2,-6
N#CC[C@@H](C1CCCC1)n1cc(-c2ncnc3[nH]ccc23)cn1,-43
Cc1ccc(C2c3[nH]c4ccccc4c3CCN2C(=O)c2ccc(Br)cc2)cc1 (stereo unspecified),246

# 6 compounds picked at random from the list so far:
SMILES,Tg IFNy HTS
COc1cccc(-c2nc3cnccn3c2NCCC(=O)NC2CCN(C)CC2)c1,-18
N#CC[C@@H](C1CCCC1)n1cc(-c2ncnc3[nH]ccc23)cn1,-43
CN1C(=O)c2cc(NC(=O)c3cccc(Cl)c3)ccc2OC[C@H]2O[C@H](CC(=O)NC3CCCCC3)CC[C@@H]21,-38
Cc1[nH]c2c(c1C(=O)NCc1cccnc1N1CCN(C)CC1)C(=O)CCC2,-6
O=C(CCCC(=O)N1CCCC2(CCNCC2)CC1)c1ccccc1,2
c1ccc(-c2nc(SCc3nnnn3-c3ccccc3)c3ccccc3n2)cc1,-11

# Next part.
SMILES,Tg IFNy HTS
COCCN1C(=O)CCC2C1CCN2C(=O)c1ccc2c(c1)OCO2 (stereo unspecified),-6
CCn1c(=Nc2ccc(N3CCOCC3)cc2)ccc2ccccc21,-8
CCN(CC)c1ncnc2c1cnn2CC(=O)NCc1ccc(F)c(Cl)c1,-28
Cc1cccc(NC(=O)Nc2ccc(-c3nc(-c4ccccc4)co3)cc2)c1,6
Cc1cc(-c2cccc3ccnn23)cnc1N,5
Cn1cc(-c2cc3n(n2)CCC(=O)N3CC(=O)NCc2ccccn2)c2ccccc21,72
CCn1c(C2CCCN(Cc3cnn4c(C)cc(C)nc34)C2)nn(C)c1=O (stereo unspecified),-46
COc1cc(C(=O)N2CCC3(CC2)Nc2ccc(C)c(C)c2-n2cccc23)cc(OC)c1OC,21
Fc1ccccc1Cc1cnc(C2CCCNC2)cn1 (stereo unspecified),-5
CC(C)C(=O)N1CCc2nc(C(=O)N3CCCCC3)sc2CC1,53
O=C(CC(NC(=O)OCc1ccccc1)C(=O)O)OCc1ccccc1 (stereo unspecified),11
CSc1ccccc1NC(=O)Cn1nc(C(F)(F)F)cc1C,-66
Cc1nc(N[C@@H](Cc2c[nH]c3ccccc23)C(=O)O)c2oc3ccccc3c2n1,-12
CC1=C(CCN2CCNC(C(=O)NC3CC3)C2)C(C)(C)CCC1 (stereo unspecified),?
CCN1C(=O)N(CCN(C)C)C(=O)C12CCN(Cc1ccc(C#CC(C)(C)O)cc1)CC2,5
COc1ccc(-c2nc(-c3ccc(-c4csnn4)cc3)no2)cc1,5
O=C(C[C@@H]1C=C[C@H](NC(=O)c2cnccn2)[C@H](CO)O1)NCc1ccccc1F,-18
Cc1nnc(-c2ccc3ccn(CC(=O)N4CCN(c5ccccn5)CC4)c3c2)o1,53
COc1ccc(NC(=O)CN2C(=O)CCc3cc(S(=O)(=O)N4CCCC4)ccc32)cc1Cl,-34
COc1cccc(-c2ccc3nc(C4CCN(C(=O)c5cnccn5)CC4)nn3c2)c1,-26
COCCN1Cc2ccccc2C2(CCN(C(=O)c3ccnnc3)CC2)C1,-1
OC1(C#CCN2CCCCCC2)CCCCC1,2
CN1C/C=C/CCOc2cccc(c2)-c2ccnc(n2)Nc2cccc(c2)C1,-84*
O=C(NC1(O)C(=O)c2ccccc2C1=O)c1cccc2c1-c1ccccc1C2=O,120
FC(F)(F)c1cc(Cl)c2c(c1)N=C(c1ccccc1)CC(c1ccccc1)=N2,-44
COc1cccc(NC(=O)C(=O)NCCc2sc(-c3ccc(C)cc3)nc2C)c1,58
Cc1ccc(-c2nnc(-c3nc(N4CCOCC4)c4ccccc4n3)o2)cc1,86
CCOC(=O)C1=NNC2C(=O)N(c3cc(C(C)=O)ccc3OC)C(=O)C12 (stereo unspecified),?
C[C@@H]1CCCCO[C@@H](CN(C)C(=O)NC2CCCCC2)[C@H](C)CN([C@@H](C)CO)C(=O)c2cc(N(C)C)ccc2O1,417
CC1Cc2cc(CCC(=O)O)ccc2O1 (stereo unspecified),5
Cc1cccc(-c2nc(Cn3nnc(C(=O)NCc4ccc(C(C)C)cc4)c3C)c(C)o2)c1,-89*
CCn1c(C2CCCN(C(=O)c3sc(OC)nc3C)C2)nn(C)c1=O (stereo unspecified),29
OC[C@@H]1[C@@H]2c3ccccc3NC[C@@H]2N1CC1CCOCC1,-7
Cc1ccn2c(=O)c(NC(=O)c3sc(-c4ccccc4)nc3C)c(C)nc2c1,-6
COCC12CCCOC1CCN(Cc1ccc3c(c1)OCO3)C2 (stereo unspecified),1
COc1ccc2c3c(n(C)c2c1)[C@H](CO)N(C(=O)Nc1ccc(F)cc1)CC31CCN(C(=O)c2ccc3c(c2)OCO3)CC1,-53
CC(C)n1cnc2c(-c3cccnc3)nc(C3CCN(Cc4ccccn4)CC3)cc21,-35
Cc1cccc(-c2nc(C)c(CCNS(=O)(=O)c3cc(F)ccc3F)s2)c1,352
Cc1ccc(-c2cncnc2)c2cccnc12,0
CCN(Cc1ccccn1)C(=O)c1ccc(OCC(=O)N2CCCCC2)cc1,-3
COC(=O)c1sccc1S(=O)(=O)N1CCc2c(ncnc2N(C)C)C1,-64
Cc1cccc2c(-c3ccc[nH]c3=O)c[nH]c12,10
O=c1[nH]ccc2c1c(=O)[nH]c1ccccc12,-100*
CC(=O)N1CC2(CCN(C(=O)c3cnc4sc(C)nn4c3=O)CC2)Nc2ccccc21,-10
COc1ccc(C(=O)CSc2nc3scc(C)c3c(=O)[nH]2)cc1,3
COc1cccc(-c2cccc3[nH]ccc23)n1,35
C[C@@H](O)C#Cc1ccc([C@@H]2[C@H](CO)N3CCCCN(CC4CC4)C[C@@H]23)cc1,35
CC(C)c1nc(CN(C)C(=O)c2cnn3ccn(C)c23)cs1,-1
COc1ccc(C(=O)Oc2ccc3c(C)cc(=O)oc3c2C(C)=O)cc1,-10
O=C(CN1CCOCC1)NC[C@H]1N[C@H](CO)[C@@H]1c1ccc(-c2ccccc2)cc1,-18
Cc1ccc(C(NC(=O)c2cc(CN3CCOCC3)c(C)o2)c2ccncc2)cc1C (stereo unspecified),-3
COc1ccc(-n2c(=O)c(C(=O)NC(C)C)c(O)c3cccnc32)cc1,187
CCOC(=O)Nc1ccc2c(c1)NC(=O)CC2c1cc(C(C)C)no1 (stereo unspecified),-8
CC(C)[C@@H]1C(=O)N[C@@H](c2ccc(F)cc2)CC=CC[C@H](C)Oc2ccccc2C(=O)N1C (mixture of isomers),-22
Cn1cnc2ccc(NC(=O)c3cc(-c4ccccc4Cl)no3)cc21,-13
CO[C@H]1CN(C)C(=O)c2cc(NC(=O)c3ccc(F)cc3)ccc2OC[C@@H](C)N(C(=O)CC2CC2)C[C@@H]1C,-12
CN1CC2(CCCN(Cc3nnc(-c4ccccc4)o3)CC2)OC1=O (stereo unspecified),-10
COCc1ncc(CN2CCN(c3ccccc3C)CC2C)cn1 (stereo unspecified),0
CN(Cc1ccccc1-n1cccn1)C(=O)CC1COCCN1 (stereo unspecified),4
CC(C)C(=O)N1CCCC(C2C(=O)Nc3ccccc32)C1 (stereo unspecified),-32
# (further entries)
SMILES,Tg IFNy HTS
COc1cc2c(cc1-c1c(-c3ccccc3)ncn1[C@H](C)C(N)=O)OCO2,7
COCCN(Cc1sccc1C)C(=O)c1scc2c1OCCO2,0
Nc1cc(C(=O)NCCCc2nc3ccccc3s2)[nH]n1,5
CCOC(=O)c1ccc2nc(-n3cccc3)sc2c1,235
C[C@H](CO)N1C[C@H](C)[C@@H](CN(C)C(=O)CCC(F)(F)F)OCc2ccccc2-c2ccccc2C1=O,25
COc1ccc2c3c([nH]c2c1)[C@H](CO)N(Cc1ccccc1OC)CC31CCN(S(=O)(=O)c2ccccc2)CC1,-55
Cc1cc(NC(=O)CNC2CCN(Cc3ccccn3)CC2)ccc1Cl,-30
Cn1c(SCc2nc3ccccc3c(=O)[nH]2)nnc1-c1ccc2c(c1)OCO2,26
CC(C)NCC(O)COc1ccc(COCCOC(C)C)cc1 (stereo unspecified),5&7
O=C(NCCC(c1ccc(F)cc1)c1ccco1)c1cccs1 (stereo unspecified),11
N[C@@H](C(=O)O)C1=CCC=CC1,13
CCOC(C)c1ccc(-c2ccc(NC(C)=O)nc2)cc1 (stereo unspecified),262
CCc1ccc(NC(=O)Cn2c(=O)ccc3cc(S(=O)(=O)N4CCCC4)ccc32)cc1,-46
COC(=O)C(Cc1c[nH]c2ccccc12)NC(=O)C1CCCN1C(=O)OCc1ccccc1 (stereo unspecified),16
Cc1ccc(S(=O)(=O)Nc2ccc3c(c2)C(=O)N(C)[C@H]2CC[C@@H](CC(=O)NCCc4ccncc4)O[C@@H]2CO3)cc1,-38
CC1(C)CC2(CCCN(CCCN3CCCC4(CCOC(C)(C)C4)C3)C2)CCO1 (stereo unspecified),-37
CC(=O)N[C@@H](CC(=O)O)C(=O)N[C@@H](CCC(=O)O)C(=O)O,17&15
O=C(c1cn(-c2ccccc2)nn1)N1CCC(OCc2ccccn2)CC1,2
CCN1CCC(C(=O)NCc2cccnc2N(C)C2CCCCC2)C1 (stereo unspecified),-4
CC(=O)c1nnn(-c2ccc(F)cc2)c1N1CCC(N2CCOCC2)CC1,41
OC1(c2ccc(Cl)cc2)CCN(Cc2c[nH]c3ccccc23)CC1,-4
C[C@H]1CN([C@@H](C)CO)C(=O)c2cccc(N(C)C)c2O[C@@H]1CN(C)C(=O)Nc1ccc(F)cc1,44
O=C(O)CC1CC(c2ccccc2)=NO1 (stereo unspecified),7
COc1ccc(C(=O)c2oc3ccc(OC)cc3c2NC(C)=O)cc1,-18
CCCCc1cn(CC2CCN(C(=O)c3sc(C)nc3C)CC2)nn1,-6
Cc1cc(C)n(Cc2nc(-c3ccc(NC(=O)Cc4ccccc4C)cc3)oc2C)n1,41
O=C(c1ccoc1)N1CCc2ccc(=O)n(CC3CC3)c2CC1,15
Fc1cccc(-c2nccn2Cc2noc(Cc3ccccc3)n2)c1,5
Cn1c(CN2CCOCC2)nnc1SCCOc1ccccc1,2
O=C(COc1cccc(Cl)c1)Nc1cccc2nonc12,-5
Cc1c(-c2ccc(F)cc2)[nH]c2ccc(CNS(=O)(=O)C3CC3)cc12,0
COc1ccc2oc(C(=O)O)c(C)c2c1,31
CC(C)C(=O)N1CC[C@@H]2N(C)CC[C@@]2(C(=O)N2CCOCC2)CC1,8

# Three structures out of the list, arranged by length of the SMILES, rising:
SMILES,Tg IFNy HTS
CC(C)NCC(O)COc1ccc(COCCOC(C)C)cc1 (stereo unspecified),5&7
Cc1c(-c2ccc(F)cc2)[nH]c2ccc(CNS(=O)(=O)C3CC3)cc12,0
COc1ccc2c3c([nH]c2c1)[C@H](CO)N(Cc1ccccc1OC)CC31CCN(S(=O)(=O)c2ccccc2)CC1,-55
